Screening results as filed in PubChem.
Cruzain inh noDet = cruzain (T. cruzi) inhibition without detergent. actives 2.3% (n = 200,000). AID 1476. Potency, µM, for the others: max response, negative = inhibition, hits mostly inhibitors. purified cruzain, Z-FR-AMC fluorescence, no detergent;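 further: plate controls were enzyme without inhibitor for no effect and buffer without enzyme for full effect; nearly all actives have a fitted effect of over 40% in size; top concentration of the series not given in the record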
Target sequence (P25779 123-467 limits assumed): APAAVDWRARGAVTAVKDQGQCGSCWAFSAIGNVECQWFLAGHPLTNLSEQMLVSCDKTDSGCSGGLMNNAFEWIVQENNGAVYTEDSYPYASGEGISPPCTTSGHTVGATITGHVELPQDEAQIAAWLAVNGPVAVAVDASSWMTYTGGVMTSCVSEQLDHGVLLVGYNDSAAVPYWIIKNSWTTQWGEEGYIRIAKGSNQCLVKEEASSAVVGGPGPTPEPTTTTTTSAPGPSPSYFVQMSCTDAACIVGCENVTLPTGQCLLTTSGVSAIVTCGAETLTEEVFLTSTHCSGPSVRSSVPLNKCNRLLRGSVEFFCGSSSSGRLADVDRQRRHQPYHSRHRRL
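Purified cruzain at 1.5 nM, pre-incubated 15 min with compound at room temperature in 100 mM sodium acetate pH 5.5, 5 mM DTT, 0.00005% Triton X-100. Reaction started with 2 uM Z-FR-AMC; AMC fluorescence increase over 60 s gives rate.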
2A StopGo = lowers the luciferase signal of an FMDV 2A StopGo reporter; human cells with a luciferase reporter of 2A StopGo recoding; control for the full effect not named in the record; Potency, µM (series often up to 57.9 µM), inactives show at the highest dose signal change, negative = less light; actives 1.2% (n = 410,000); active = well fitted falling curve with a large enough effect; inconclusive = small, poorly fitted or top-dose-only effect; inactive = no such curve, though single readings can be large or run the other way; tested in HEK293T cells; further: on the % scale 0 is the no-effect control and ±100 the full control effect; nearly all actives have a fitted effect of over 45% in size; luciferase light after 4 h
Cruzain Triton = inhibitors of Trypanosoma cruzi cruzain with detergent | P25779 | actives 0.43% (n = 200,000) | purified cruzain, Z-FR-AMC fluorescence, 0.01% Triton | Potency, µM, inactives show max response, negative = inhibition, most hits filed as inhibitors;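 further: plate controls were neutral wells for no effect and buffer without enzyme for full effect; nearly all actives have a fitted effect of over 40% in size; top concentration of the series not given in the record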
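Z-FR-AMC hydrolysis (2 uM substrate) by cruzain (1.5 nM) monitored kinetically at ex 360/em 450 nm after 15 min room-temperature compound exposure; 0.01% Triton X-100, pH 5.5, 5 mM DTT.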
SARS PLP yeast = SARS-CoV PLP inhibition in yeast. Potency, µM (highest dose often 32.9 µM), for the others: top-dose activity, positive = growth rescue. actives 0.19% (n = 330,000). S. cerevisiae expressing SARS-CoV PLpro, growth rescue; control for the full effect not named in the record; active means well fitted rising curve with a large enough effect; inconclusive means small, poorly fitted or top-dose-only effect; inactive means no such curve, though single readings can be large or run the other way; further: 0% is about no effect; nearly all actives have a fitted effect of over 55% in size; growth read by luminescence after 48 h
RE007 growth inh = less growth of the S. pombe RE007 Vpr strain; actives 0.21% (n = 360,000); S. pombe RE007 Vpr strain, BacTiter-Glo ATP luminescence, 24 h; control for the full effect not named in the record; Potency, µM (doses to about 92.2 µM), for inactives: at the top dose activity change, negative = less growth; AID 651644; active = well fitted falling curve with a large enough effect; inconclusive = small, poorly fitted or top-dose-only effect; inactive = no such curve, though single readings can be large or run the other way;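 further: on the % scale 0 is the no-effect control and ±100 the full control effect; nearly all actives have a fitted effect of over 50% in size; the assay follows cell death caused by Vpr and the record does not say whether a fall means rescue or toxicity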
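Fission yeast RE007 carrying one integrated HIV-1 vpr copy, seeded at OD 0.01 in PMG+AL medium with 23 nL pinned compound. Grown 24 h at 30 degrees; viability read by BacTiter-Glo luminescence after 5 min.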
LASV entry inh = blocks Lassa virus binding to or entry into cells; actives 1.2% (n = 300,000); Potency, µM (titrated, usually from 37.9 µM), without a hit: top-dose activity change, negative = inhibition, hits mostly inhibitors; Lassa virus pseudotype entry inhibition, cell reporter; control for the full effect not named in the record; active means well fitted inhibition curve with a large enough effect; inconclusive means small, poorly fitted or top-dose-only effect, or effect the other way; inactive means flat fitted curve, though single readings scatter; tested in HEK293 cells; further: on the % scale 0 is the no-effect control and ±100 the full control effect; nearly all actives have a fitted effect of over 50% in size; luciferase read-out
NS1 inh = blocks influenza NS1 protein function; S. cerevisiae slowed by influenza A NS1, growth recovery by OD600; Potency, µM (doses to about 46.1 µM), for inactives: at the highest dose activity, positive = more growth; actives 0.4% (n = 270,000); active means well fitted rising curve with a large enough effect; inconclusive means small, poorly fitted or top-dose-only effect; inactive means no such curve, though single readings can be large or run the other way; further: nearly all actives have a fitted effect of over 50% in size
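A cell-based growth assay was used: compounds that relieve NS1-induced slow growth of budding yeast raise OD600. Assay medium was yeast nitrogen base with ammonium sulphate and -URA supplement, pH 6.0, with 2% galactose.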
MARV entry inh = Marburg virus entry inhibition; AID 540276; Marburg virus pseudotyped entry inhibition, cell reporter; control for the full effect not named in the record; about a third of the inactives were read at about 46 µM; actives 1.8% (n = 300,000); Potency, µM (top dose mostly 37.8 µM), inactives show top-dose activity change, negative = inhibition, usual class: inhibitors; active = well fitted inhibition curve with a large enough effect; inconclusive = small, poorly fitted or top-dose-only effect, or effect the other way; inactive = flat fitted curve, though single readings scatter; tested in HEK293 cells; about a fifth of its hits are not listed in these tables; further: on the % scale 0 is the no-effect control and ±100 the full control effect; luciferase read-out
Numbers without * were called inactive; ? = inconclusive; . = no result given; & = joins results of further samples; [ ] = remark or other dose. Unless noted, the call rests on the fitted dose curve; in most records, active means well fitted curve in the direction sought with a large enough effect; inconclusive means small, poorly fitted or top-dose-only effect, or another doubt; inactive means no such curve, though single readings can be large; an effect the other way counts as inactive or inconclusive. Potency means the concentration at half of the fitted maximal effect.

SMILES | Cruzain inh noDet | 2A StopGo | Cruzain Triton | SARS PLP yeast | RE007 growth inh | LASV entry inh | NS1 inh | MARV entry inh
CCCNS(=O)(=O)c1ccc(CCC(=O)N2CCN(c3ccc(OC)cc3)CC2)cc1 | 7% | . | 3.4% | -14% | 4% | -8% | 1% | -18%
CC(C)(C)C1CCc2onc(C(=O)Nc3cnn(Cc4ccc(F)cc4)c3)c2C1 (stereo not given) | 13% | -12% | -0.2% | 2% | 4% | -20% | -7% | ?
O=C(/C=C/c1ccc(-c2ccccc2[N+](=O)[O-])o1)c1ccc(F)cc1 | -3% | . | -4.7% | 0% | -21% | 0% | 12% | -5%
CN(C)/C(=N\S(=O)(=O)c1ccccc1)c1ccccc1 | . | -14% | . | 8% | 6% | 15% | -2% | ?
O=[N+]([O-])c1ccc(SNc2ccccc2)c([N+](=O)[O-])c1 | . | -13% | . | . | -11% | -20%[46.1 µM] | . | ?
COc1ccc(N2CC(NC(=O)NC(C)(C)C)CC2=O)cc1 (stereo not given) | 6% | 0% | 2.2% | 3% | -1% | 2% | 0% | -6%
O=C(Nc1ncnc2c1CCC2)C12CC3CC(CC(C3)C1)C2 | -7% | 11% | 4.3% | 2% | 4% | -23% | -7% | 13%
CC(CC(=O)N1CCN(c2ccccc2)CC1)S(=O)(=O)c1ccc2c(c1)NC(=O)CS2 (stereo not given) | . | ? | . | 17% | -14% | -4%[46.1 µM] | 7% | ?
COc1cccc(NC(=O)CSc2c(C)cnc3c2c(=O)n(C)c(=O)n3C)c1 | -8% | -12% | -4.3% | . | . | 10%[46.1 µM] | . | .
COc1ccc(/C=C2\S/C(=N/S(=O)(=O)c3cccs3)NC2=O)cc1 | . | 5% | . | 2% | 15% | -2% | . | ?
O=C1CCCN1c1ccc(S(=O)(=O)NCc2ccc(F)cc2)cc1 | . | -8% | . | 5% | 3% | . | -3% | .
O=C(c1cc(Cl)nc2ccccc12)N1CCN(S(=O)(=O)c2ccccc2[N+](=O)[O-])CC1 | . | -30% | . | 4% | 7% | -5% | -3% | -12%
CCOC(=O)C1CCCN(C(=O)c2cccc(S(=O)(=O)N(C)c3ccc(OC)cc3)c2)C1 (stereo not given) | . | -17% | . | 0% | 9% | ? | . | 22%
Cc1ccccc1OCC(=O)Nc1ccc2c(c1)C(=O)c1ccccc1C2=O | -28% | -6% | -1.9% | -5% | 16% | -1% | 16% | ?
CCCn1c(=O)c2sccc2n2c(CCCC(=O)Nc3ccc(Oc4ccccc4)cc3)nnc12 | ? | -21% | 5.2% | . | . | -24%[46.1 µM] | . | .
COc1cccc(/C=C2\SC(=S)N(CCCC(=O)Nc3ccc(C(=O)O)cc3)C2=O)c1 | . | 21% | . | ? | 3% | 0%[46.1 µM] | 9% | -1%[46.1 µM]
CCc1ccc(/C=N/NC(=O)c2cc(C3CC3)nc3ccccc23)s1 | 8% | -14% | -7.2% | 4% | 11% | -28% | 7% | ?
CCCCN(CC)C(=S)Nc1ccc2nc3n(c(=O)c2c1)CCCCC3 | 12% | 1% | -3.0% | -11% | 33% | 6% | -8% | -25%
COc1cccc(CNC(=O)C2CCCN(S(=O)(=O)c3ccc4c(ccn4C)c3)C2)c1 (stereo not given) | 0% | ? | -4.4% | . | . | -8%[46.1 µM] | . | .
Cc1ccccc1C(=O)NCc1ccc2c(c1)CCN2C(=O)c1ccccc1 | 0% | -4% | 0.1% | . | . | -30%[46.1 µM] | . | .
NC(=O)CSc1nnc(C2CC2)n1Cc1ccccc1 | 2% | -4% | 1.4% | 4% | 3% | -5% | 0% | -18%
CC1CN(C(=O)N2CCC(C(=O)NCc3cccs3)CC2)c2cc(Cl)ccc2O1 (stereo not given) | 0% | -28% | -4.6% | . | . | -18%[46.1 µM] | . | .
Cc1cc(C)n2c(SCc3ccc(C#N)cc3)nnc2n1 | -6% | 15% | -3.3% | 5% | 0% | 10% | -8% | 6%
CCCCc1ccc(NC(=O)Cn2cnc3c(oc4ccccc43)c2=O)cc1 | 24% | -5% | -7.4% | . | . | 10%[46.1 µM] | . | .
Cc1ccccc1-c1nnc(SCC(=O)N(C)c2c(N)n(Cc3ccccc3)c(=O)[nH]c2=O)n1C | . | -14% | . | 1% | -8% | -21% | . | 4%
O=C(c1ccc(Cl)cc1)N1CCN(c2cccc3[nH]ccc23)CC1 | . | -18% | . | -3% | 7% | -20% | 1% | -24%
O=c1oc2ccc(Cl)cc2cc1-c1cn2c(n1)sc1ccccc12 | 4% | -10% | 4.2% | . | . | 4%[46.1 µM] | . | .
COc1cc(NC(=O)c2cccs2)c(C(=O)OCC(=O)c2cc(C)n(-c3ccccc3)c2C)cc1OC | 3.2µM* | 4µM* | -11% | 5% | -2% | ? | -2% | 3.5µM*
CC(C)CC(=O)CC1(O)C(=O)Nc2ccccc21 (stereo not given) | . | -7% | . | 0% | -7% | . | 0% | .
Cc1cccn2c(CNCCCOc3cccnc3)c(C(=O)N3CCOCC3)nc12 | . | -2% | . | 0% | -18% | 3% | -1% | -8%[46.1 µM]
COc1cccc(CNC(=O)Cn2nc(-c3ccc(Cl)cc3)ccc2=O)c1 | ? | 7%&-7% | -0.2%&-6.4% | 0% | -16% | 1%[46.1 µM] | 5% | ?
O=C(COC(=O)Cc1ccccc1F)Nc1ccc2c(c1)OCO2 | . | 8% | . | -6% | 24% | 6% | . | -5%[46.1 µM]
COc1ccc(C2C(CC(=O)O)=C(O)C(=O)N2c2ccccc2)cc1 (stereo not given) | -8% | 42%[activator] | -0.4% | -1% | 22% | 6% | ? | 7%
CCOc1ccc(-c2cc(CCCC(=O)NCc3ccco3)no2)cc1 | 5% | -17% | -2.1% | 7% | -10% | ? | 6% | ?
COc1cc(CN2CCCC(C(=O)c3ccc(C(C)(C)C)cc3)C2)cc(OC)c1O (stereo not given) | . | -13% | . | 1% | -8% | ? | 23% | ?
CC(=O)c1ccc(N2CCN(C(=S)Nc3cc(C)ccc3C)CC2)cc1 | 0% | -20% | -2.1% | 16% | -2% | 14% | 1% | 21%

Some of the entries so far, with two lines to a compound.
Every second line gives: Cruzain inh noDet | 2A StopGo | Cruzain Triton | SARS PLP yeast | RE007 growth inh | LASV entry inh | NS1 inh | MARV entry inh
COc1cc(NC(=O)c2cccs2)c(C(=O)OCC(=O)c2cc(C)n(-c3ccccc3)c2C)cc1OC
→ 3.2µM* | 4µM* | -11% | 5% | -2% | ? | -2% | 3.5µM*
CC(C)CC(=O)CC1(O)C(=O)Nc2ccccc21 (stereo not given)
→ . | -7% | . | 0% | -7% | . | 0% | .

The listing continues.
SMILES | Cruzain inh noDet | 2A StopGo | Cruzain Triton | SARS PLP yeast | RE007 growth inh | LASV entry inh | NS1 inh | MARV entry inh
CC1CC(C)CN(S(=O)(=O)c2ccc(Oc3ccc([N+](=O)[O-])cc3)cc2)C1 (stereo not given) | 0% | ? | -4.0% | ? | 10% | 4% | -4% | ?
CCNC(=O)N(CCOC)CC1CCCN(C2Cc3ccccc3C2)C1 (stereo not given) | . | 6% | . | 0% | -8% | ? | 3% | 2%[46.1 µM]
Cc1nc2ccccc2c(=O)n1NC(=O)c1ccc([N+](=O)[O-])cc1 | . | -11% | . | 1% | 30% | 10% | . | ?
O=C(COC(=O)/C=C/c1cccc(F)c1)NC1CCCCCC1 | . | -7% | . | 6% | -5% | -2% | . | 0%
Cc1ccc(NC(=O)/C(Cl)=C/c2ccccc2)cc1C | -9% | -47% | -6.2% | -62% | . | ? | -38% | ?
CCc1ccc(NC(=S)Nc2ccc3cn[nH]c3c2)cc1 | -12% | 40%[activator] | -4.6% | -19% | 1% | ? | -3% | ?
CCOc1cccc2sc(N3CCN(C(=O)C(C)(C)C)CC3)nc12 | 2% | 4% | 0.7% | . | . | ? | . | .
CCC1CCc2nc3sc(C(=O)Nc4cccc(F)c4)c(N)c3cc2C1 (stereo not given) | 5µM* | -12% | -4.8% | . | . | -11%[46.1 µM] | . | 6%[46.1 µM]
O=C(Nc1ccccc1)c1cc(S(=O)(=O)N2CCOCC2)cs1 | -3% | . | 1.7% | 13% | -6% | 1% | -6% | 0%
COc1ccc(C(=O)N2CCCC(c3nc(-c4ccc(C)o4)no3)C2)cc1OC (stereo not given) | . | 8% | . | 6% | 0% | . | 14% | 1%[46.1 µM]
CCCCN(C)C(=O)c1ccc2c(=O)n3nc(Nc4cc(C)ccc4C)sc3nc2c1 | ? | -22% | -11% | . | . | 1%[46.1 µM] | . | .
COCCN(C(=O)CCc1ccc(OC)cc1)c1nnc(-c2ccncc2)s1 | . | -29% | . | 0% | 1% | -8% | 0% | -13%[46.1 µM]
CCOC(=O)C1=C(C)N=c2s/c(=C\c3ccc(OCC(=O)O)c(OC)c3)c(=O)n2C1c1ccc(OC)cc1 (stereo not given) | . | ? | . | 0% | -9% | . | 8% | .
CC(=O)c1cnc2c(-c3cccc(Br)c3)cnn2c1C | 35% | 30% | -1.9% | -3% | -12% | ? | 6% | 17%
CCCCn1c(N)c(N(CC(C)C)C(=O)c2cc(S(=O)(=O)N3CCCCC3)ccc2C)c(=O)[nH]c1=O | . | -16% | . | 0% | 13% | 12% | . | -10%[46.1 µM]
Cc1nc(N)ncc1C(=O)Nc1ccccc1 | . | 7% | . | -1% | -9% | 13%[46.1 µM] | . | 4%[46.1 µM]
O=C(CNC(=S)N(CCCN1CCOCC1)Cc1cccs1)NC1CCCCCCC1 | 5% | 5% | -0.8% | 2% | 5% | ? | -7% | ?
CC1CCC2(CC1)NC(=O)N(CC(=O)Nc1ccc3c(c1)OCCO3)C2=O (stereo not given) | . | 28% | . | 0% | -6% | 3% | . | 14%[46.1 µM]
O=C(O)CCC(=O)N1CCN(S(=O)(=O)c2ccc3ccccc3c2)CC1 | . | 9% | . | -1% | 7% | . | 1% | -6%[46.1 µM]
COc1ccc(C(c2nnnn2C2CCCC2)N2CCC(C)CC2)cc1 (stereo not given) | -6% | 28% | -2.2% | -3% | -1% | -26% | -51% | -19%
COc1ccccc1C(=O)NC(CCSC)C(=O)N1CCC(Cc2ccccc2)CC1 (stereo not given) | . | ? | . | 1% | 2% | ? | . | ?
CCC(C)NC(=O)C1CCC(CNS(=O)(=O)c2ccccc2)CC1 (stereo not given) | . | -16% | . | 1% | 5% | . | -2% | .
